Screening results: PubChem, several laboratories
INS promoter inh = TRM-6 insulin promoter activity inhibition | TRM-6 cells (human fetal islet line), insulin promoter-eGFP reporter, imaging; reporter expression induced with tamoxifen | actives 0.9% (n = 130,000) | AID 1273 | inhibition, % at 2 µM;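 active = inhibition above the mean plus 3 SD, with well images judged a real hit on visual review, cut at about 60% in these data, passing the limit was not always enough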
GALR2 ag = GALR2 (human) receptor agonism. O43603. GALR2-expressing cells, agonist activation read-out. activation, %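 (tested at 5 µM)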. actives 0.48% (n = 140,000);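 active = above mean plus 3 SD of all compounds, about 5% in these data, not always enough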;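 also: 0% = vehicle buffer wells and 100% = reference agonist at full effect; tested in CHO reporter cells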
Target sequence (O43603 whole entry, looked up): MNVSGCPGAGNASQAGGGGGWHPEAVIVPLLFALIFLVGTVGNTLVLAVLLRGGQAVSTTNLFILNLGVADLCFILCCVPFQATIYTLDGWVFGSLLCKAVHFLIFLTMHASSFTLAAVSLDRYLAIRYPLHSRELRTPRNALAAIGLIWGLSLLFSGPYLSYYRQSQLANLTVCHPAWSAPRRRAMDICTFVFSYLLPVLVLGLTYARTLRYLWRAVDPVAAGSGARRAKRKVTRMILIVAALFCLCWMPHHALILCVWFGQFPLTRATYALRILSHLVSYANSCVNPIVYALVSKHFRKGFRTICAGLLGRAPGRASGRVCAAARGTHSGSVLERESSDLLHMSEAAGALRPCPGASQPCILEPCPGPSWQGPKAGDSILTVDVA
HSV replic up = increases HSV replication in cells; HSV replication augmentation in cells, fold increase; maximum fold increase; actives 0.005% (n = 220,000); AID 1956;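 active = peak rise of 1.5-fold or more in the series; tested in PC3 cells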;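 also: first round at 10 µM; read as green reporter fluorescence; hits show the peak of a series up to 25 µM; 1 = signal of infected wells without compound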
PKD1 inh = blocks activity of human protein kinase D1 | Q15139 | PKD1 kinase fluorescence polarization assay | inhibition, %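 (about 10 µM by stock and volumes)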 | actives 0.056% (n = 200,000);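 active = inhibition of 50% or more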;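 also: controls were vehicle for no effect and a reference inhibitor for full effect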
RGS16-Gao HTS = RGS16-Galphao interaction regulator (human); binding response (% of control), % at 10 µM; bead-based flow cytometry RGS16-Galphao binding, fluorescence; actives lie on both sides; actives 0.38% (n = 220,000); O15492+P09471; AID 1441;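 active = below 25% or above 175%, edge rows of some plates excepted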;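 also: Galphao activated by GDP with aluminum fluoride before binding; 100% = wells without compound and 0% = beads without RGS; some results beyond the cut were filed as inactive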
Target sequence (O15492 whole entry, looked up): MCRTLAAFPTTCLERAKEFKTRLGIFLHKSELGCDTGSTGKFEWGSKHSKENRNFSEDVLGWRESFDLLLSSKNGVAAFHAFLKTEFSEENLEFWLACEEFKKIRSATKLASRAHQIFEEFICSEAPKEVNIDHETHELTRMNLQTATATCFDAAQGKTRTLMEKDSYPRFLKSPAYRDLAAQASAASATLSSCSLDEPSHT
Target sequence (P09471 whole entry, looked up): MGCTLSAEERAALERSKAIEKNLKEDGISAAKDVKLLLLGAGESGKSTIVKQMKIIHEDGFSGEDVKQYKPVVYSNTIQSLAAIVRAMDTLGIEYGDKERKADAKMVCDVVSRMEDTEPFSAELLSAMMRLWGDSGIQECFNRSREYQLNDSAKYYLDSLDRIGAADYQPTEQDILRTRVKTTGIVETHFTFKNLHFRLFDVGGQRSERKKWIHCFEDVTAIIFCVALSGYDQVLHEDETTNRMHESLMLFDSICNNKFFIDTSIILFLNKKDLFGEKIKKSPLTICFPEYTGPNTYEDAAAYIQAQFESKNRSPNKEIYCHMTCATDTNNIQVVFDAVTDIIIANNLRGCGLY
INS promoter inh cell count = second read-out of INS promoter inh, no call of its own (marks repeat the call); normalized cell count, %; measured here: cell count, toxicity; reference of the scale not given here;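 cells exposed to compound for 48 h; stained nuclei by imaging scaled within each plate; lower means fewer cells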
HSV replic up primary fold = recorded beside HSV replic up, whose call it bears; fold increase; compound at 10 µM; measured here: primary screen fold increase 10 uM; tested in PC3 cells;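 GFP signal in the first replicate; 1 = infected wells without compound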
* marks the source's active call; other numbers are inactive results; i = inactive; / = no result given; [ ] = another dose, or the depositor's remark.

SMILES,INS promoter inh,INS promoter inh cell count,GALR2 ag,HSV replic up,HSV replic up primary fold,PKD1 inh,RGS16-Gao HTS
O=C(NC1CCCCCC1)C1CC(=O)N(Cc2ccccc2)C1 (stereo unspecified),/,/,0.1,i,0.93,-9,96
CC(=O)c1ccc(Nc2nc(NCCO)nc(OC(C(F)(F)F)C(F)(F)F)n2)cc1,35,123,-0.9,i,0.98,-5,104
COc1ccc(NC(=O)Nc2ccc3c(c2)CCC3)cc1OC,/,/,/,i,1,-4,99
CCOc1ccc2nc(SCC(=O)NC3CCCc4ccccc43)sc2c1 (stereo unspecified),/,/,-1.3,i,0.95,0,96
O=C(/C=C/c1ccc(Cl)cc1)Nc1ccc(N2CCOCC2)cc1,/,/,/,i,0.95,-6,102
Cn1c(SCC(O)c2ccccc2)nnc1-c1ccc2ccccc2c1 (stereo unspecified),/,/,/,i,0.92,/,110
COc1ccccc1N(C(=O)NCc1ccccc1)C1=NCC(C)S1 (stereo unspecified),/,/,-2.9,i,1.1,-3,103
O=c1[nH]c2cc3c(cc2cc1C(c1nnnn1C1CCCC1)N1CCSCC1)OCCO3 (stereo unspecified),20,75,-0.8,/,/,2,97
COC(=O)C1C2CCC(C2)C1C(=O)OCC(=O)c1ccccc1 (stereo unspecified),/,/,-0.8,i,0.88,-1,104
OCCC1CN(Cc2ccc3c(c2)CCO3)CCN1C1CCCC1 (stereo unspecified),/,/,/,i,0.81,-3,101
Cc1onc(C(=O)Nc2cccnc2Cl)c1[N+](=O)[O-],-82,82,/,i,0.85,-1,102
O=C(c1ccco1)N1CCN(c2ccc([N+](=O)[O-])cc2Cl)CC1,/,/,/,i,0.97,/,101
COc1ccccc1-c1ccc(/C=C2\C=CC(=O)O2)o1,/,/,/,i,1,/,96
Cc1cccc(-c2noc(-c3ccoc3C)n2)c1,/,/,/,i,0.73,5,96
COc1ccc(CN(C)C2c3ccccc3-c3ccccc32)cc1,21,69,-0.5,i,1.2,0,186*[activator]
CCOC(=O)c1sc2ncn(/N=C/c3ccc(O)c(OC)c3)c(=O)c2c1C,/,/,/,i,0.94,3,102
CCC(C)Nc1nc(N)c([N+](=O)[O-])c(NCCO)n1 (stereo unspecified),/,/,/,i,0.96,/,100
COc1nc(OC)nc(N2CCC(C(=O)NCC3CCCCC3)CC2)n1,-11,174,-1.5,i,0.91,-12,101
CN(C)S(=O)(=O)c1cccc(C(=O)OCC(=O)NCc2ccc3c(c2)OCO3)c1,/,/,/,i,1.1,0,100
COc1ccccc1CNC(=O)C/C(C)=N/NC(=O)Cc1ccc(OC)c(OC)c1,14,103,-0.8,i,0.93,-3,99
CCCc1cc(=O)oc2cc(OCC(=O)N(C)C)c(Cl)cc12,-37,101,-0.8,i,0.88,-8,93
CCn1nc(NC(=O)c2cccnc2)c2cc3ccccc3nc21,29,174,0.7,i,0.72,-2,102
COC(=O)C1=C(C)NC(C)=C([N+](=O)[O-])C1c1ccccc1C(F)(F)F (stereo unspecified),-29,97,0.0,i,0.68,1,101
CN(C)NC(=O)C(NC(=O)c1ccccc1)C12CC3CC(CC(C3)C1)C2 (stereo unspecified),-47,97,/,i,0.81,-3,97

Ten structures already listed, arranged by heavy-atom count, rising.
SMILES,INS promoter inh,INS promoter inh cell count,GALR2 ag,HSV replic up,HSV replic up primary fold,PKD1 inh,RGS16-Gao HTS
CCC(C)Nc1nc(N)c([N+](=O)[O-])c(NCCO)n1 (stereo unspecified),/,/,/,i,0.96,/,100
COc1ccccc1-c1ccc(/C=C2\C=CC(=O)O2)o1,/,/,/,i,1,/,96
CCCc1cc(=O)oc2cc(OCC(=O)N(C)C)c(Cl)cc12,-37,101,-0.8,i,0.88,-8,93
O=C(c1ccco1)N1CCN(c2ccc([N+](=O)[O-])cc2Cl)CC1,/,/,/,i,0.97,/,101
CCn1nc(NC(=O)c2cccnc2)c2cc3ccccc3nc21,29,174,0.7,i,0.72,-2,102
COC(=O)C1=C(C)NC(C)=C([N+](=O)[O-])C1c1ccccc1C(F)(F)F (stereo unspecified),-29,97,0.0,i,0.68,1,101
COc1nc(OC)nc(N2CCC(C(=O)NCC3CCCCC3)CC2)n1,-11,174,-1.5,i,0.91,-12,101
CCOC(=O)c1sc2ncn(/N=C/c3ccc(O)c(OC)c3)c(=O)c2c1C,/,/,/,i,0.94,3,102
CN(C)S(=O)(=O)c1cccc(C(=O)OCC(=O)NCc2ccc3c(c2)OCO3)c1,/,/,/,i,1.1,0,100
COc1ccccc1CNC(=O)C/C(C)=N/NC(=O)Cc1ccc(OC)c(OC)c1,14,103,-0.8,i,0.93,-3,99

Further structures follow.
SMILES,INS promoter inh,INS promoter inh cell count,GALR2 ag,HSV replic up,HSV replic up primary fold,PKD1 inh,RGS16-Gao HTS
CN(C)C=NC(=O)c1cn(-c2ccc(F)cc2)c(=O)c2ccccc12,-17,59,/,i,1,4,208
CC1CCN(C(=O)CSc2nnc(-c3cc4ccccc4cc3O)n2Cc2ccco2)CC1,/,/,-2.2,i,0.66,-4,101
Cc1nn(-c2ccccc2)c(Cl)c1/C=N/O,7,92,-0.6,i,0.97,-2,99
COc1ccc(-n2c(Cc3cccn3C)nnc2SCC(=O)Nc2ccc(C)cc2C)cc1,/,/,-2.0,i,0.98,-3,103
Cc1ccc(S(=O)(=O)N2CC3CCCC2C3)cc1 (stereo unspecified),/,/,/,i,1.1,/,99
CN(CCc1ccccn1)C(=O)CCNC(=O)Cn1cnc2ccccc2c1=O,19,79,-2.2,i,1.2,-9,107
O=C(CCNS(=O)(=O)c1ccc(Cl)cc1)N1CCN(Cc2ccccc2)CC1,-44,71,-1.8,i,1,-7,134
CCC(=O)N1CCc2cc(Br)cc(S(=O)(=O)N(C)c3ccc(OC)cc3OC)c21,27,65,/,i,0.91,0,103
CC1=NN(C(=O)Cn2nc([N+](=O)[O-])c(Br)c2C)C(O)(C(F)(F)F)C1 (stereo unspecified),-24,133,-1.6,i,1.1,-1,101
CCc1ccc(C(C(=O)NC(C)(C)CC)N(Cc2ccco2)C(=O)Cn2nnc3ccccc32)cc1 (stereo unspecified),-359,57,-1.1,i,1,-12,97
CC(=O)c1c(N2CCN(C)CC2)nc(=S)n(-c2cc(C)ccc2C)c1C,/,/,/,i,1.1,-3,99
CCN(CC)C(=O)COc1ccc(/C(C)=N/Nc2ncc(Cl)cc2Cl)cc1,/,/,/,i,0.95,/,100
COc1cccc2c(=O)c3ccccc3oc12,44,150,/,i,1,4,102
O=c1[nH]c(CN(CCO)CCO)nc2c1C1(CCCCC1)Cc1ccccc1-2,/,/,-0.9,i,0.97,-10,95
C=C(C)Cn1c(Sc2nc3ccccc3[nH]2)nc2c1c(=O)[nH]c(=O)n2C,/,/,-0.1,i,1.1,-6,99
Cc1ccc(SCCOCCN2CCc3ccccc3C2)cc1,-67,88,-0.3,i,0.99,6,108
O=C(c1ccncc1)N1CCN(C(=O)c2cccc3ccccc23)CC1,/,/,-0.6,i,0.98,-3,99
C=CCn1c(SCC(=O)Nc2ncc(Cc3cc(Cl)ccc3Cl)s2)nnc1-c1ccncc1,-45,124,-0.6,i,0.92,0,104
CCc1cccc2c(C(=O)CCl)c[nH]c12,/,/,0.7,i,1,1,104
Cc1sc2nc(CC(=O)N3CCCC3)[nH]c(=O)c2c1C,/,/,/,i,0.97,-8,86
CCC(=O)Nc1ccc(NC(=O)CN2CCCC(C)C2)c(Cl)c1 (stereo unspecified),16,119,-2.5,i,0.98,12,93
CCOc1ccc(NC(=O)CCC(=O)NNC(=O)COc2ccc(C)cc2)cc1,/,/,/,i,0.92,3,102
COc1ccc(C2(C(=O)Nc3ccccc3)CCOCC2)cc1,-3,101,-1.4,i,0.81,-19,86
O=C(/C=C/c1ccco1)Nc1cccc(S(=O)(=O)N2CCOCC2)c1,/,/,0.0,i,1.2,10,100
CC1C2C(C)N(C)C(=O)N(C)C2N(C)C(=O)N1C (stereo unspecified),55,117,-2.7,i,0.99,4,105
COc1ccc(C(=O)N2CCN=C2SC)cc1OC,/,/,-1.6,i,0.87,-3,103
CC(C)N(C)C(=O)CCc1nnc(CCc2c[nH]c3ccccc23)o1,/,/,/,i,1,7,98
COc1ccc(C2CC(c3ccccc3)=NN2C(=O)CN2N=NC3C(=O)N(c4cccc(F)c4)C(=O)C32)cc1 (stereo unspecified),/,/,-1.8,/,/,-4,109
COCCCNC(=O)c1cccc(NC(=O)c2ccccc2)c1,0,91,-0.7,i,0.95,-12,87
COc1cccc(-c2nc3ccccc3c(=O)o2)c1,-6,95,-1.3,i,0.9,2,140
Cc1cc(Cl)ccc1OCC(=O)NNC(=O)C1CCCO1 (stereo unspecified),38,120,/,i,0.83,12,102
O=C(COc1ccc(Cl)cc1)N/N=C/CCc1ccccc1,/,/,-2.5,i,0.92,-1,99
Cc1ccc(CN2CCN(Cc3nc(C(C)C)cs3)CC2CCO)cc1 (stereo unspecified),/,/,/,i,0.98,-9,105
CC12CCC(C(=O)Nc3ccccc3)(C/C1=N\O)C2(C)C (stereo unspecified),-5,104,-2.6,i,0.87,-2,105
O=[N+]([O-])c1ccc(NC2CCCC2)cc1,-19,76,-1.3,i,0.98,-1,103
Oc1ccccc1N1CCN(c2ncnc3sc(-c4ccccc4)cc23)CC1,/,/,/,i,1,/,98
Cc1cc(NC(=O)COC(=O)COc2ccc3c4c(c(=O)oc3c2)CCC4)no1,/,/,/,i,0.97,6,103
CC(C)(C)c1ccc(C(=S)N2CCN(c3ccccc3)CC2)cc1,/,/,/,i,1.4,/,114
NC(=O)C1CCN(CCS(=O)(=O)c2ccc(Cl)cc2)CC1,/,/,/,i,0.95,/,94
CCN1CC=C2C(C1)C(c1ccc(Cl)s1)C(C#N)=C(N)C2(C#N)C#N (stereo unspecified),-54,58,1.4,/,/,-9,103
COC(=O)CCCC1=CC2=CC(=O)C(C)(OC(=O)c3cccs3)C(=O)C2=CN1CCCCO (stereo unspecified),/,/,/,i,1,/,99
CSCCC(NC(N)=O)C(=O)N(C)CC(=O)Nc1cc(C)ccc1C (stereo unspecified),-47,35,1.1,i,0.99,2,98
CC(C)c1nc2oc3ccccc3c(=O)c2c(=O)n1-c1ccccc1,30,104,-2.4,i,1,4,104
CCC(Sc1nc(-c2ccccc2)c(C#N)c(=O)[nH]1)C(=O)Nc1cc(C)on1 (stereo unspecified),/,/,-0.6,i,0.74,-15,104
CCOc1ccc2nc3c(cc2c1)CN(CCOC)C(=NC)S3,0,98,-3.4,i,0.82,-18,108
Cn1c(NC(=O)C[n+]2cc(-c3ccc(F)cc3)n3c2CCC3)cc(=O)n(C)c1=O,-23,76,-1.0,i,0.97,-10,108
CC(C)COC(=O)NCC12C=CC(O1)C1C(=O)N(c3ccc(Cl)cc3)C(=O)C12 (stereo unspecified),-16,74,-0.2,i,0.9,0,98
O=c1c2cc(Cl)ccc2nc(-c2ccc(Cl)c(Cl)c2)n1O,/,/,/,i,0.92,/,102
CCOC(=O)Nc1ccc2c(c1)N(C(=O)N(C)C)c1ccccc1CC2,-31,109,-0.2,i,0.93,-6,105
CCCNC(=O)OCc1cccnc1Sc1ccc(C)cc1,-64,170,/,i,1,11,112
COc1ccc(C(=O)CN(C(=O)c2ccc(Cl)cc2)N2C(=O)c3ccccc3C2=O)cc1,/,/,-2.8,i,0.97,6,99
CSc1nsc(SC)c1NC(=O)OCC1CCCO1 (stereo unspecified),-73,72,-2.5,i,0.8,6,101
Cc1ccc(C(=O)O)cc1-c1ccc(/C=C2\SC(=O)N(CC(=O)Nc3ccccc3)C2=O)o1,/,/,/,i,1.1,-2,93
Cc1cccc2cc(C(c3nnnn3C(C)(C)C)N3CCN(C(=O)c4ccco4)CC3)c(=O)[nH]c12 (stereo unspecified),49,34,0.2,i,0.73,-1,102
COc1nc(OCCNS(=O)(=O)c2ccc(C)cc2)nc(N(C)C)n1,/,/,/,i,0.88,/,99
